Source: PubChem BioAssay
Methyltransferases – Primary Screen for Target Class Profiling of Small Molecule Inhibitors of Methyltransferases; purified enzyme, MTase-Glo SAH luminescence; active compounds read low; calls only at 40 µM; 25,000 compounds, 3.9% hits; AID 1745853, 2022; active = -50% or lower on at least one of six enzymes; inconclusive = the cases between; inactive = as a rule above -30% on all six;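 also: enzymes were COMT GAMT GNMT HNMT NNMT and PNMT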
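Each enzyme was reacted with SAM and its substrate, with compounds tested once at 40 uM; SAH formed was read by MTase-Glo luminescence.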
Calls only; i = inactive; ? = inconclusive; + = active, no number. % is scaled to controls: 0 for no effect and ±100 for the full control effect. The list is partial; the hit share may differ from the screen's.

Structure,Methyltransferases
CC(C)NC(=O)c1ccc2c(=O)n(C3CC3)c3nn(CC(=O)Nc4ccccc4Cl)c(=O)n3c2c1,i
CC1CCCC(NC(=O)C2(C)Cn3c(cc4sccc43)C(=O)N2Cc2ccc3c(c2)OCO3)C1C (stereo not drawn),i
CC(=O)OC1CC2(C)C(CCC(C)C23Cc2c(O)cc(CO)c(C=O)c2O3)C(C)(C)C1O (stereo not drawn),i
C=C1C(=O)O[C@@H]2C[C@H](C)[C@@]3(O)C=C(C(C)=O)[C@]4(CC3C[C@H]12)C(=O)O[C@H]1C[C@@H](C)C(CCC(C)=O)=CC[C@H]14 (stereo partly drawn),i
COc1ccccc1-c1ccc(C(=O)N2C[C@@H](N(C)C)[C@H](C(C)C)C2)cc1,i
COCCCNc1nc2c(S(=O)(=O)c3ccccc3)nnn2c2ccccc12,i
CC1(C(=O)NC2CCCCCC2)Cn2c(cc3sccc32)C(=O)N1Cc1ccccc1F (stereo not drawn),i
Cc1cnc(CCNS(=O)(=O)c2cccc(F)c2)n1Cc1ccccc1,i
COc1cccc(CN2C(=O)c3cc4occc4n3CC2(C)C(=O)NC2CCCC(C)C2C)c1 (stereo not drawn),i
CCN(CC)CCNC(=O)c1ccc2nc(-c3ccccc3)c(-c3ccc(CN4CCC(n5c(=O)[nH]c6ccccc65)CC4)cc3)nc2c1,?
Cn1c2c(c3ccccc31)C(C(=O)NC1CCCCCC1)N(Cc1ccc(F)cc1)C(=O)CS2 (stereo not drawn),i
CC(CNC(=O)c1cc2n(n1)CC(C)(C(=O)NC1CCCCC1)N(C)C2=O)c1ccccc1 (stereo not drawn),i
CC(=O)C1=CCC2C3CCC4CC(O[C@@H]5O[C@H](CO)[C@@H](O[C@@H]6O[C@@H](C)[C@H](O)[C@@H](O)[C@H]6O)[C@H](O)[C@H]5O[C@@H]5O[C@H](CO)[C@@H](O)[C@H](O)[C@H]5O)CCC4(C)C3CCC12C (stereo partly drawn),i
CCOC(=O)c1cc2n(n1)CC(C)(C(=O)NC1CCCCC1)N(c1ccc(C)c(C)c1)C2=O (stereo not drawn),i
CCCNC(=O)N1Cc2c(sc3c2CCCC3)-n2cccc2C1c1cccc(C)c1 (stereo not drawn),i
COc1ccccc1CCN1C(=O)c2cc3ccccc3n2CC1(C)C(=O)NCc1ccccc1 (stereo not drawn),i
COc1ccccc1CNC(=O)C1(C)Cn2nc(-c3ccccc3)cc2C(=O)N1c1ccccc1F (stereo not drawn),i
COc1ccc(-c2nnc(-c3ccc(OC)c(S(=O)(=O)N4CCCCCC4)c3)o2)cc1OC,i
CSCCC(NS(=O)(=O)c1ccc2c(c1)oc(=O)n2C)C(=O)N1CCN(Cc2ccccc2)CC1 (stereo not drawn),i
COc1ccc(CN2C(=O)[C@@H]3C[C@@H](O)CN3C3(CN(C)C3)C2=O)cc1,i
O=[N+]([O-])c1ccc(-[n+]2nc(-c3ccccc3)nn2-c2ccc(I)cc2)cc1,+
COCCNC(=O)C1c2ccccc2C(=O)N(Cc2ccco2)C12CCCCC2 (stereo not drawn),i
CN1C(=O)c2cc(C(=O)NC3CCCC3)nn2CC1(C)C(=O)NC1CCCCCC1 (stereo not drawn),i
COCCNC(=O)c1cc2n(n1)CC(C)(C(=O)NC1CCCC1)N(C)C2=O (stereo not drawn),i
Cc1ccccc1Cn1nc2n(CC(C)C)c(=O)c3ccc(C(=O)NC4CCCC4)cc3n2c1=O,i
CC(C)CNC(=O)c1ccc2c(=O)n(C(C)C)c3nn(Cc4c(F)cccc4Cl)c(=O)n3c2c1,i
CC(C)=CC/C=C(/C)[C@H]1CC[C@]2(C)[C@@H]1[C@H](O)CC1[C@@]3(C)CC[C@H](O)C(C)(C)[C@@H]3[C@@H](O[C@@H]3O[C@H](CO)[C@@H](O)[C@H](O)[C@H]3O[C@@H]3O[C@@H](C)[C@H](O)[C@@H](O)[C@H]3O)C[C@]12C (stereo partly drawn),i
COc1ccccc1CNC(=O)C1c2c(n(C)c3ccccc23)SCC(=O)N1C1CCCCC1 (stereo not drawn),i
O=C(CCc1nnc2n(Cc3ccccc3Cl)c(=O)c3ccccc3n12)N1CCC(Cc2ccccc2)CC1,i
O=C(CCC[C@@H]1[C@H]2CCCN3CCC[C@@H](CN1C(=O)c1ccccc1F)[C@@H]23)N1CCOCC1,i

A draw from above in order of length of the SMILES, highest first:
Structure,Methyltransferases
CC(=O)C1=CCC2C3CCC4CC(O[C@@H]5O[C@H](CO)[C@@H](O[C@@H]6O[C@@H](C)[C@H](O)[C@@H](O)[C@H]6O)[C@H](O)[C@H]5O[C@@H]5O[C@H](CO)[C@@H](O)[C@H](O)[C@H]5O)CCC4(C)C3CCC12C (stereo partly drawn),i
O=C(CCC[C@@H]1[C@H]2CCCN3CCC[C@@H](CN1C(=O)c1ccccc1F)[C@@H]23)N1CCOCC1,i
CC(C)NC(=O)c1ccc2c(=O)n(C3CC3)c3nn(CC(=O)Nc4ccccc4Cl)c(=O)n3c2c1,i
CC1CCCC(NC(=O)C2(C)Cn3c(cc4sccc43)C(=O)N2Cc2ccc3c(c2)OCO3)C1C (stereo not drawn),i
CC(CNC(=O)c1cc2n(n1)CC(C)(C(=O)NC1CCCCC1)N(C)C2=O)c1ccccc1 (stereo not drawn),i
COc1ccccc1CNC(=O)C1c2c(n(C)c3ccccc23)SCC(=O)N1C1CCCCC1 (stereo not drawn),i
CN1C(=O)c2cc(C(=O)NC3CCCC3)nn2CC1(C)C(=O)NC1CCCCCC1 (stereo not drawn),i

Returning to the listing with the 3 entries that preceded the break.
Structure,Methyltransferases
COc1ccccc1CNC(=O)C1c2c(n(C)c3ccccc23)SCC(=O)N1C1CCCCC1 (stereo not drawn),i
O=C(CCc1nnc2n(Cc3ccccc3Cl)c(=O)c3ccccc3n12)N1CCC(Cc2ccccc2)CC1,i
O=C(CCC[C@@H]1[C@H]2CCCN3CCC[C@@H](CN1C(=O)c1ccccc1F)[C@@H]23)N1CCOCC1,i
CC(C)NC(=O)Cn1nc2n(Cc3ccccc3)c(=O)c3ccc(C(=O)NC4CCCC4)cc3n2c1=O,i
Cc1ccc(CNC(=O)Cn2ccc3cc(S(=O)(=O)N4CCC(C)CC4)ccc32)o1,i
Cc1cnc(-c2ccccc2)n1C1CCCN(S(=O)(=O)c2ccccc2)C1 (stereo not drawn),i
CCOc1ccccc1CN1C(=O)c2nc3ccccc3n2CC1(C)C(=O)NC1CCCCCC1 (stereo not drawn),i
CCOC(=O)c1cc2n(n1)CC(C)(C(=O)NC1CCC(C)CC1)N(Cc1cccc(OC)c1)C2=O (stereo not drawn),i
O=C(/C=C/c1ccc(O)cc1)N[C@@H](Cc1ccc(O)cc1)C(=O)O,i
O=C(CCc1ccc2c(c1)CNCCO2)NCC1CC1,i
CCCn1c(=O)c2ccccc2n2c(=O)n(CC(=O)c3cccc(Cl)c3)nc12,?
COc1ccc(CNC(=O)CCn2ccc3cc(S(=O)(=O)N4CCCCC4)ccc32)c(OC)c1,i
CC(C)c1nc2ccccc2n1CC(=O)N1CC[C@](C)(O)[C@@H](O)C1,i
Cc1[nH]c2ccccc2c1CC(=O)N[C@@H](Cc1ccccc1)C(=O)N(C)c1ccccc1,i
COC(=O)c1cc2n(n1)CC(C)(C(=O)NC1CCCCCC1)N(c1ccc(F)cc1)C2=O (stereo not drawn),i
COc1ccc([C@H]2CN(C(=O)C3(c4ccc(F)cc4)CC3)C[C@@H]2N)cc1,i
COc1cccc(C(=O)N2CCCC(COc3ccccc3C(=O)N3CCOCC3)C2)c1 (stereo not drawn),i
CCOc1ccc(CN2C(=O)c3cc4occc4n3CC2(C)C(=O)NC2CCCCC2C)cc1 (stereo not drawn),i
CN1C(=O)c2cc(C(=O)NCCc3c[nH]c4ccccc34)nn2CC1(C)C(=O)NC1CCCCC1 (stereo not drawn),i
CCCn1c(=O)c2ccccc2n2c(SCc3ccccc3F)nnc12,i
CC(C)c1cc(C(C)C)c(CC(=O)NS(=O)(=O)Oc2c(C(C)C)cccc2C(C)C)c(C(C)C)c1,?
CCc1ccc(CNC(=O)Cn2c(C)cc3nc4n(c(=O)c32)CCCC4)cc1,i
CC(C)OCCCn1c(=O)c2ccccc2n2c(SCc3ccc(Cl)cc3)nnc12,i
Cc1ccc(O)c(N=Nc2ccccc2)n1,+
CN(C)c1ccc(Nc2nc(N)n(C(=O)c3c(F)cccc3F)n2)cc1,i
CCCn1c(=O)c2cc(F)ccc2n2c(SCC(=O)Nc3cc(Cl)ccc3OC)nnc12,i
Cc1ccccc1NC(=O)N1Cc2c(sc3c2CCCC3)-n2cccc2C1c1cccc(F)c1 (stereo not drawn),i
CN(CC(=O)Nc1ccc(Cl)cc1)S(=O)(=O)c1ccc2[nH]c3c(c2c1)CCCC3,i
Cc1ccccc1CN1C(=O)c2cc3sccc3n2CC1(C)C(=O)NC1CCCCCCC1 (stereo not drawn),i
O=c1c2ccccc2n2c(=O)n(Cc3ccc(F)cc3)nc2n1CCc1ccccc1,i
CC1=C(CO)CC(C(C)C2CCC3C4CC=C5CC(OC6OC(COC7OC(CO)C(O)C(O)C7O)C(O)C(O)C6O)CC(O)C5(C)C4CCC23C)OC1=O (stereo not drawn),i
Cn1c(=O)c2ccnn2c2ccc(C(=O)NCC3CCN(Cc4ccccc4F)CC3)cc21,+
CCc1cccc(NC(=O)CN(C)S(=O)(=O)c2ccc3[nH]c4c(c3c2)CCCC4)c1,i

Remaining list, next part
Structure	Methyltransferases
CN1CCCN(C[C@@H]2CN(C(=O)c3ccn(C)n3)C[C@@H]2CO)CC1	i
CCOc1ccc(CN2C(=O)c3cc(-c4ccccc4)nn3CC2(C)C(=O)NCc2ccccc2)cc1 (stereo not drawn)	i
COc1ccc(CNc2nc3c(-c4cccc(Br)c4)nnn3c3ccccc23)cc1	i
O=C(CCCc1nc2ccccc2s1)N1CCc2nc3cc(-c4ccccc4)[nH]n3c(=O)c2C1	i
CCCN1C(=O)Cc2cc(C(=O)N3CCN(c4ccccc4Cl)CC3)ccc21	i
CC1NC(=O)CNC(=O)C(C(C)C)NC(=O)C2CCCN2C(=O)C(C(C)C)NC(=O)C(Cc2c[nH]c3ccccc23)NC1=O (stereo not drawn)	i
CC(C)NC(=O)N1CCCC1c1noc(CCC(=O)NCC2CC2)n1 (stereo not drawn)	i
CC1(C(=O)NC2CCCCCCC2)Cn2c(ccc2-c2ccco2)C(=O)N1Cc1ccccn1 (stereo not drawn)	i
Cc1cccc(NC(=O)Cn2nc3n(CC(C)C)c(=O)c4ccc(C(=O)NCC(C)C)cc4n3c2=O)c1	i
CCCNS(=O)(=O)c1ccc2[nH]c(=O)[nH]c2c1	i
CCCCN(CC)c1nc(C)nc2c1c(C)cn2-c1c(C)cc(C)cc1C	i
COc1ccc(NC(=O)N2Cc3c(sc4c3CCCC4)-n3cccc3C2c2cccc(C)c2)cc1OC (stereo not drawn)	i
O=C(Cn1ccc2cc(S(=O)(=O)N3CCCC3)ccc21)NCc1cccs1	i
Cc1ccccc1CN1C(=O)c2nc3ccccc3n2CC1(C)C(=O)NC1CCC(C)CC1 (stereo not drawn)	i
O=S(=O)(NCCn1c(-c2ccccc2)nc2ccccc21)c1ccccc1Cl	i
C[C@@H]1O[C@@H](O[C@H]2[C@H](OC(=O)[C@]34CCC(C)(C)C[C@H]3C3=CCC5[C@@]6(C)CC[C@H](O[C@@H]7O[C@H](CO[C@@H]8OC[C@H](O)[C@H](O)[C@H]8O)[C@@H](O)[C@H](O)[C@H]7O)C(C)(C)C6CC[C@@]5(C)[C@]3(C)C[C@H]4O)OC[C@@H](O)[C@@H]2O)[C@H](O)[C@H](O)[C@H]1O[C@@H]1OC[C@H](O)[C@H](O[C@@H]2OC[C@@H](O)[C@H](O)[C@H]2O)[C@H]1O (stereo partly drawn)	i
O=C(CCc1nnc2n(Cc3ccc(F)cc3)c(=O)c3ccccc3n12)N1CCN(c2ccccn2)CC1	i
CC(C)CCNC(=O)C1(C)Cn2c(c(-n3cccc3)c3ccccc32)C(=O)N1Cc1ccco1 (stereo not drawn)	i
Nc1nonc1-c1nc2cnccc2n1C1CCCCC1	+
COc1ccc(CN2C(=O)c3cc4sccc4n3CC2(C)C(=O)NC2CCC(C)CC2)cc1OC (stereo not drawn)	+
C[C@@H]1O[C@@H](O[C@@H]2/C=C/C=C/C=C\C=C\C[C@H](C)OC(=O)/C=C/[C@H]3O[C@@H]3C[C@H](O)C[C@]3(O)C[C@@H](O)[C@@H](C(=O)O)[C@H](C2)O3)[C@H](O)[C@H](N)[C@@H]1O	?
CCCN1C(=O)c2c(C(=O)Nc3ccccc3Cl)ncn2CC1(C)C(=O)NCc1ccc(OC)cc1 (stereo not drawn)	i
C=C(CO)C(=O)O[C@H]1C[C@@]23O[C@@H]2CC/C(=C/[C@H]2OC(=O)C(=C)[C@H]12)CO[C@H]3O	i
CC(C)CCNC(=O)Cn1c(=O)oc2cc(S(=O)(=O)N3CC(C)CC(C)C3)ccc21 (stereo not drawn)	i
CCCn1c(=O)c2ccc(Cl)cc2n2c(=O)n(CC(=O)NC3CCCCC3)nc12	i

Further entries follow:
Structure	Methyltransferases
CCNC(=O)N[C@H]1[C@H](O)[C@H](O)C[C@@H]1c1cncnc1	i
COc1ccc(Nc2nc3c(S(=O)(=O)c4ccc(F)cc4)nnn3c3ccccc23)cc1	i
Cc1[nH]c(=O)c(C#N)cc1-c1ccncc1	i
COCCCNC(=O)c1cc(C)nc2onc(C3CCCNC3)c12 (stereo not drawn)	i
COC1CC(O[C@H]2CC[C@]3(C)C4CC[C@@]5(C)C(=O)[C@]4(CC[C@@H]3C2)CC[C@@H]5C2=CC(=O)OC2)OC(C)C1OC1OC(COC2OC(CO)C(O)C(O)C2O)C(O)C(O)C1O (stereo partly drawn)	i
Cc1cnccc1NCCn1ccnc1-c1cc2n(n1)CCCNC2	+
O=[N+]([O-])c1ccc2c(c1)S(=O)(=O)C=C2	i
C[C@@H]1O[C@@H](O[C@H]2[C@H](Oc3cc(O)c(C(=O)CCc4ccc(O)cc4)c(O)c3)O[C@H](CO)[C@@H](O)[C@@H]2O)[C@H](O)[C@H](O)[C@H]1O	i
NC(=O)[C@@H]1CN(Cc2ccccn2)C[C@H]1COc1ccccc1	i
CCN(CC)CCNc1ccc2ncn3c4ccc(O)cc4c(=O)c1c23	?
